Lassa entry inh = inhibitors of Lassa virus binding or cell entry; AID 540256; Potency, µM (series often up to 37.9 µM), for inactives: top-dose activity change, negative = inhibition, actives largely listed as inhibitors; 1.2% of 300,000 active; Lassa virus pseudotype entry inhibition, cell reporter; control for the full effect not named in the record; active means well fitted inhibition curve with a large enough effect; inconclusive means small, poorly fitted or top-dose-only effect, or effect the other way; inactive means flat fitted curve, though single readings scatter; tested in HEK293 cells; further: on the % scale 0 is the no-effect control and ±100 the full control effect; nearly all actives have a fitted effect of over 50% in size; luciferase read-out
NS1 function inh = influenza NS1 inhibition. S. cerevisiae slowed by influenza A NS1, growth recovery by OD600. Potency, µM (doses to about 46.1 µM), without a hit: at the highest dose activity, positive = more growth. 0.4% of 270,000 active. AID 2326; active means well fitted rising curve with a large enough effect; inconclusive means small, poorly fitted or top-dose-only effect; inactive means no such curve, though single readings can be large or run the other way; further: nearly all actives have a fitted effect of over 50% in size
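Read-out: OD600 growth recovery of NS1-expressing budding yeast. Cells grown overnight at 30C in -URA glucose medium, washed, resuspended and diluted 1:100 in 2% galactose assay medium, pH 6.0. Same strain lacking NS1 served as positive control.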
Cruzain noTriton = blocks cruzain activity in detergent-free assay | P25779 | purified cruzain, Z-FR-AMC fluorescence, no detergent | Potency, µM, for inactives: max response, negative = inhibition, actives largely listed as inhibitors | 2.3% of 200,000 active | AID 1476;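 further: plate controls were enzyme without inhibitor for no effect and buffer without enzyme for full effect; nearly all actives have a fitted effect of over 40% in size; top concentration of the series not given in the record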
Target sequence (P25779 123-467 limits assumed): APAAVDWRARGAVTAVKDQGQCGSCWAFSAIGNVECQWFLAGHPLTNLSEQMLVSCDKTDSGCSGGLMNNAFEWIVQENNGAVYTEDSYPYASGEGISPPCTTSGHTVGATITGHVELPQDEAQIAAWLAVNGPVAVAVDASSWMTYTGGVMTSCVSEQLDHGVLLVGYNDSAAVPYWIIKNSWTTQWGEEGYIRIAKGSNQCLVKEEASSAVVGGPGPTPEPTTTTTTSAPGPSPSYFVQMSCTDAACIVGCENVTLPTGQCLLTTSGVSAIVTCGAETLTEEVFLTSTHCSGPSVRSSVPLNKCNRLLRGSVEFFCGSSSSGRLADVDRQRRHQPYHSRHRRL
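Purified cruzain at 1.5 nM, pre-incubated 15 min with compound at room temperature in 100 mM sodium acetate pH 5.5, 5 mM DTT, 0.00005% Triton X-100. Reaction started with 2 uM Z-FR-AMC; AMC fluorescence increase over 60 s gives rate.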
SARS PLpro yeast = blocks SARS-CoV papain-like protease in a yeast assay; S. cerevisiae expressing SARS-CoV PLpro, growth rescue; control for the full effect not named in the record; Potency, µM (top dose mostly 32.9 µM), without a hit: top-dose activity, positive = growth rescue; 0.19% of 330,000 active; AID 485353; active means well fitted rising curve with a large enough effect; inconclusive means small, poorly fitted or top-dose-only effect; inactive means no such curve, though single readings can be large or run the other way; further: 0% is about no effect; nearly all actives have a fitted effect of over 55% in size; growth read by luminescence after 48 h
MARV entry inh = blocks Marburg virus binding to or entry into cells; Marburg virus pseudotyped entry inhibition, cell reporter; control for the full effect not named in the record; about a third of the inactives were read at about 46 µM; Potency, µM (top dose mostly 37.8 µM), for the others: at the top dose activity change, negative = inhibition, most hits filed as inhibitors; 1.8% of 300,000 active; AID 540276; active = well fitted inhibition curve with a large enough effect; inconclusive = small, poorly fitted or top-dose-only effect, or effect the other way; inactive = flat fitted curve, though single readings scatter; tested in HEK293 cells; about a fifth of its hits are not listed in these tables; further: on the % scale 0 is the no-effect control and ±100 the full control effect; luciferase read-out
RE007 growth inh = less growth of the S. pombe RE007 Vpr strain; S. pombe RE007 Vpr strain, BacTiter-Glo ATP luminescence, 24 h; control for the full effect not named in the record; Potency, µM (doses to about 92.2 µM), without a hit: top-dose activity change, negative = less growth; 0.21% of 360,000 active; AID 651644; active = well fitted falling curve with a large enough effect; inconclusive = small, poorly fitted or top-dose-only effect; inactive = no such curve, though single readings can be large or run the other way;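 further: on the % scale 0 is the no-effect control and ±100 the full control effect; nearly all actives have a fitted effect of over 50% in size; the assay follows cell death caused by Vpr and the record does not say whether a fall means rescue or toxicity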
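Fission yeast strain RE007, carrying one chromosomally integrated HIV-1 vpr copy, was seeded at OD 0.01 in PMG+AL medium with 23 nL pinned compound. After 24 h at 30 °C and 99% humidity, viability was read by BacTiter-Glo luminescence.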
Cruzain inh Det = inhibitors of Trypanosoma cruzi cruzain with detergent. purified cruzain, Z-FR-AMC fluorescence, 0.01% Triton. Potency, µM, inactives show max response, negative = inhibition, usual class: inhibitors. 0.43% of 200,000 active. AID 1478;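 further: plate controls were neutral wells for no effect and buffer without enzyme for full effect; nearly all actives have a fitted effect of over 40% in size; top concentration of the series not given in the record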
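Detergent-containing arm of a paired screen for aggregation-based inhibition: 0.01% Triton X-100 present. Cruzain at 1.5 nM cleaved 2 uM Z-FR-AMC at pH 5.5 with 5 mM DTT; AMC fluorescence gain over 60 s measured activity.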
StopGo reporter = FMDV 2A StopGo reporter, luciferase signal. Potency, µM (doses to about 57.9 µM), for the others: at the highest dose signal change, negative = less light. human cells with a luciferase reporter of 2A StopGo recoding; control for the full effect not named in the record. 1.2% of 410,000 active. AID 1159524; active = well fitted falling curve with a large enough effect; inconclusive = small, poorly fitted or top-dose-only effect; inactive = no such curve, though single readings can be large or run the other way; tested in HEK293T cells; further: on the % scale 0 is the no-effect control and ±100 the full control effect; nearly all actives have a fitted effect of over 45% in size; luciferase light after 4 h
An asterisk follows results filed as active; ? = inconclusive; · = no result given; [ ] = remark or other dose. Unless noted, the call rests on the fitted dose curve; in most records, active means well fitted curve in the direction sought with a large enough effect; inconclusive means small, poorly fitted or top-dose-only effect, or another doubt; inactive means no such curve, though single readings can be large; an effect the other way counts as inactive or inconclusive. Potency means the concentration at half of the fitted maximal effect.

SMILES | Lassa entry inh | NS1 function inh | Cruzain noTriton | SARS PLpro yeast | MARV entry inh | RE007 growth inh | Cruzain inh Det | StopGo reporter
Cc1ccc(/C=C(\C#N)c2nn(-c3ccccc3)c(N)c2C#N)cc1 | ? | 17.2% | 1.0% | -17.6% | -5.5% | · | -7.8% | -27.9%
Cc1cccc(CCNC(=O)CCCOc2cc(=O)n(C)c3ccccc23)c1 | 13.5% | · | · | -3.4% | ? | 0.2% | · | 1.0%
Fc1cc(F)c(C2SCCN2C(=S)Nc2cccc(C(F)(F)F)c2)c(F)c1 (configuration not stated) | -9.3% | 2.6% | · | -1.5% | -24.1%[46.1 µM] | -12.6% | · | -28.5%
O=C(NCc1cccnc1)c1cccc(OC2CCN(Cc3ccc(CO)o3)CC2)c1 | -0.6% | -4.1% | · | -3.3% | -7.9% | 3.5% | · | -22.5%
CCC1CCCCN1CCCNC(=O)c1ccc2c(=O)n(Cc3ccc(OC)cc3)c(=O)[nH]c2c1 (configuration not stated) | ? | -4.4% | -8.5% | -0.3% | ? | -3.3% | 0.2% | -26.1%
N/C(=N\OC(=O)c1ccco1)c1cccnc1 | 6.7% | -2.0% | · | 0.2% | 21.6%[46.1 µM] | 2.0% | · | 44.8%[activator]
O=C(NC(=S)NNC(=O)c1ccccc1F)c1cccnc1 | -25.5% | -7.6% | · | -0.9% | 14.5%[46.1 µM] | -13.0% | · | 31.7%[activator]
O=C(CCN1CCc2ccccc2C1)Nc1ccc(F)c(F)c1 | · | 0.0% | · | -2.9% | · | 1.3% | · | -15.8%
Cc1ccc(NC2CCCN(C(=O)CCC(=O)c3ccccc3)C2)cc1C (configuration not stated) | · | -24.0% | · | -8.5% | · | -0.5% | · | -7.7%
COc1ccc(/C=N/NC(=O)C2c3ccccc3-c3ccccc32)cc1 | -23.9% | 15.4% | -6.9% | -7.1% | ? | 1.2% | 2.2% | -24.9%
O=C(NCCC1=CCCCC1)c1ccc2c(c1)ncn2-c1ccc(F)c(F)c1 | 3.7%[46.1 µM] | · | 5.5% | · | · | · | -6.3% | 30.8%[activator]
CC(=O)Nc1ccc(NC(C)=O)c(NC2OCC(O)C(O)C2O)c1 (configuration not stated) | 4.5% | 5.1% | · | -0.1% | 5.5%[46.1 µM] | -14.6% | · | 0.2%
COc1ccccc1CNC(=O)C1CCCN(S(C)(=O)=O)C1 (configuration not stated) | -0.9% | 1.2% | -1.6% | · | -8.6% | -0.4% | 3.5% | ·
CCN(CC)S(=O)(=O)c1ccc(N2CCN(S(=O)(=O)c3ccc4c(c3)OCCO4)CC2)nc1 | ? | -7.3% | 2.9% | 4.7% | ? | 3.4% | -0.7% | -25.5%
CCCS(=O)(=O)c1c(S(=O)(=O)CCC)c2c(N)cccn2c1C(=O)c1ccc(F)cc1 | -26.6% | ? | 2.7% | 1.1% | ? | 4.6% | -14.8% | -10.6%
O=C(COC(=O)c1ccccn1)NCc1ccccc1Cl | 1.6% | 4.2% | -4.4% | -5.2% | 14.5% | 15.7% | -6.2% | -5.5%
Cc1noc(C)c1S(=O)(=O)N1CCC(C(=O)N2CCN(C(=O)c3ccco3)CC2)CC1 | 0.0% | 0.1% | 5.4% | 7.7% | 3.2% | -3.9% | -11.1% | -1.0%
Cc1c(NC(=S)NC(=O)CCc2ccccc2)c(=O)n(-c2ccccc2)n1C | 8.9% | 4.3% | · | 0.2% | 6.7%[46.1 µM] | 3.4% | · | 15.1%
O=C(Cn1cc(S(=O)(=O)N2CCN(c3ccccc3F)CC2)c2ccccc2c1=O)Nc1cccc(C(F)(F)F)c1 | -14.0%[46.1 µM] | · | 7.94µM* | · | ? | · | -1.7% | 1.7%
COc1ccc(-c2cn3c(C)c(C(=O)N4CCc5ccccc5C4)sc3n2)cc1 | · | -25.5% | · | -16.9% | · | -6.9% | · | -3.1%
CCOC(=O)C1=C(COC(=O)C(C)(C)Oc2ccc(Cl)cc2)NC(=O)NC1C (configuration not stated) | ? | · | · | -4.6% | ? | 0.2% | · | -27.9%
CC(C)c1ccc(CSc2ccc(S(=O)(=O)N3CCOCC3)cn2)cc1 | -20.9% | · | · | -3.1% | -9.2% | 8.1% | · | -22.7%
O=C(CSc1nnc(-c2ccncc2)o1)NCc1ccccc1Cl | -2.0% | 6.8% | 7.1% | 14.6% | -27.8% | -5.3% | -4.2% | -4.6%
Cc1cc(C)c(NC(=O)c2cccc3c2C(=O)N(C2CCCCC2)C3)c(C)c1 | · | 11.7% | · | -2.1% | · | 1.0% | · | 39.5%[activator]
Nc1ccccc1OCP(=O)(c1ccccc1)c1ccccc1 | -13.4% | 12.5% | 11.3% | 7.8% | 1.7% | -0.5% | -0.7% | 9.8%

Next records:
SMILES | Lassa entry inh | NS1 function inh | Cruzain noTriton | SARS PLpro yeast | MARV entry inh | RE007 growth inh | Cruzain inh Det | StopGo reporter
COc1cc(C)nc(-c2csc(C)n2)n1 | · | -1.9% | · | 2.8% | · | 2.2% | · | -1.2%
Nc1c(Br)cc(Br)c(N2CCCC2=O)c1Br | 4.8% | 5.9% | -1.1% | -6.5% | -12.5% | 7.8% | 1.7% | -2.4%
CC(=O)Nc1ccc(S(=O)(=O)N2C3CCCC2CC(NC(=O)C2CCCCC2)C3)cc1 (configuration not stated) | ? | -3.8% | 17.8% | -3.8% | ? | 12.5% | 6.8% | -3.9%
COc1ccc(/C=C/c2noc(-c3ccccc3O)n2)cc1OC | 15.7%[46.1 µM] | · | -4.4% | · | -4.8%[46.1 µM] | · | 4.4% | 50.8%[activator]
Cn1cc(S(=O)(=O)N2CCCCC2)cc1C(=O)Nc1cccc(C#N)c1 | 18.0%[46.1 µM] | · | -4.6% | · | · | · | 0.7% | -14.6%
CC(=O)Nc1ccc(Oc2ccccc2)cc1 | · | -1.1% | · | 1.7% | · | 17.9% | · | -4.2%
CC(=O)NCCCc1nc2ccccc2n1Cc1ccccc1C | -5.6% | 1.2% | 0.5% | 1.1% | -7.5% | 11.4% | -2.0% | 3.7%
CCCn1c(SCC(=O)NCc2ccc(Cl)cc2)n[nH]c1=O | -2.0% | · | · | 14.1% | -4.4% | 15.0% | · | -6.4%
CCCCn1c(SCC(=O)NCc2ccc(C)cc2)nc2c(sc3ccccc32)c1=O | 3.4%[46.1 µM] | · | 5.8% | · | · | · | 2.7% | -17.7%
COc1cc(CC(NC(C)=O)C(=O)NC2CCN(c3c(Cc4ccccc4)c(C)nc4ncnn34)CC2)cc(OC)c1 (configuration not stated) | 1.3% | -12.4% | ? | -11.1% | -18.5% | -9.0% | -4.1% | -15.0%
O=C(CCN1C(=O)C2C3C=CC(C4CC34)C2C1=O)Oc1ccccc1 (configuration not stated) | · | -11.7% | · | -1.1% | · | 6.6% | · | -8.7%
CCn1c2c(c(=N)c3c1CCC3)CCCC2 | 16.3%[46.1 µM] | -0.6% | · | -0.1% | ? | ? | · | -24.2%
COc1ccc(C(=O)COC(=O)[C@@H](NS(=O)(=O)c2ccccc2)C(C)C)cc1 | ? | · | · | -0.8% | -24.3% | 5.4% | · | -7.1%
O=C(Nc1oc2ccccc2c(=O)c1-c1ccc(Br)cc1)c1ccco1 | · | -11.5% | · | -4.1% | · | -16.5% | · | -0.7%
CC1CN(O)C2CCc3c(no[n+]3[O-])C12O (configuration not stated) | 17.3% | -4.2% | 9.7% | · | -1.4% | -0.1% | 6.5% | -10.6%
CC(=O)c1ccc(OC(=O)c2nc(-c3ccccc3)oc2C)cc1 | -0.4% | -0.1% | · | -2.2% | -2.7%[46.1 µM] | -5.0% | · | 30.5%[activator]
Cc1nc2c(cc1NC(=O)c1ccccc1)nc(C)n2Cc1ccccc1 | · | 2.0% | · | 3.9% | · | 3.6% | · | 3.8%
c1ccc(Oc2nc(-c3cccnc3)nc3ccccc23)cc1 | · | -33.6% | · | -1.4% | · | -23.1% | · | -22.8%
COc1ccc(NC(=O)c2cnn(-c3ccc(C)cc3)c2-n2cccc2)cc1Cl | -27.1%[46.1 µM] | · | -2.7% | · | · | · | -7.8% | ?
O=C(NC1CCCCC1)C(c1cccs1)N(C(=O)Cc1c[nH]c2ccccc12)c1ccc(F)cc1 (configuration not stated) | -2.2% | 5.4% | -5.8% | -17.1% | 6.8% | -4.6%[3.69 µM] | -1.4% | 7.1%
O=C(Cc1ccccc1)N/N=C/C=C/c1cccc([N+](=O)[O-])c1 | 13.1% | -13.6% | -21.1% | -0.5% | -2.0% | -21.2% | 3.9% | 27.5%
CCNC(=O)CC1C(=O)N(CC)C(=S)N1NC(=O)c1ccccc1 (configuration not stated) | ? | 0.3% | · | 1.4% | -10.1%[46.1 µM] | 5.2% | · | 1.3%
CCOc1ccc(C(F)(F)F)cc1NC(=O)c1ccc(OC)c([N+](=O)[O-])c1 | 2.9% | -6.9% | 7.4% | -6.2% | 16.8% | 5.1% | -8.6% | ·
Cc1nn(-c2ccccc2)c2sc(C(=O)OCN3C(=O)c4ccccc4C3=O)cc12 | · | -1.2% | -1.0% | -0.1% | -4.6% | · | 7.3% | ·
CCCCc1ccc(/C=C2\C(=O)ON=C2c2ccccc2)s1 | 17.3% | 1.5% | -4.8% | -4.6% | -15.1% | 10.2% | -16.4% | -17.2%
CC(=O)N1CCN=C1SCc1cccc(C)c1 | · | 5.8% | · | -0.4% | · | -9.0% | · | -13.9%
CC(=O)Nc1ccc(NC(=O)CSCCc2ccccn2)cc1 | -0.9% | 13.9% | 0.7% | -2.6% | 0.4% | 17.3% | 4.3% | -1.2%
O=C(O)c1ccccc1-c1ccccc1C(=O)NCc1cccnc1 | 13.7% | 6.5% | · | -1.2% | 16.5%[46.1 µM] | 28.8% | · | -8.3%
COc1ccc(/C=N/OCC(=O)N=Nc2c(O)[nH]c3ccc(Br)cc23)cc1 | 2.2% | · | · | -4.2% | ? | -0.3% | · | ?

Taken from above:
`CC(=O)N1CCN=C1SCc1cccc(C)c1` @ RE007 growth inh = -9.0%
`CC(=O)Nc1ccc(Oc2ccccc2)cc1` @ SARS PLpro yeast = 1.7%
